Screens (PubChem BioAssay)
RanGTP-Imp inh: disruptors of Ran-importin-beta complex formation – biochemical, FRET, CFP-Ran, YFP-importin-beta, homogeneous, primary screen. cell-free CFP-Ran/YFP-importin-beta FRET ratio. 300,000 tested, 1.1% active. inhibition, % (concentration not given with the values);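 active = most replicates above 15%; inconclusive = exactly half above 15%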;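 note: 0% = DMSO wells and 100% = Ran loaded with GDP instead of GTP; wells of about 40 µL received 100 nL stock; the first replicate is given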
HNF4A DNA FP: change in binding of human HNF4 alpha to DNA | P41235 | HNF4a-FITC DNA binding, fluorescence polarization, 1 h | activity change, % at 10 µM | 360,000 tested, 0.3% active | AID 1224865; in the data active = activity change above about 30%, passing the limit was not always enough;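 note: controls were the assay level and a saturating level of protein; the project sought stronger binding though the title names inhibitors; some compounds called inactive have numbers as strong as hits; positive values seem to mean higher polarization but the record does not say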
Target sequence (P41235 whole entry, looked up): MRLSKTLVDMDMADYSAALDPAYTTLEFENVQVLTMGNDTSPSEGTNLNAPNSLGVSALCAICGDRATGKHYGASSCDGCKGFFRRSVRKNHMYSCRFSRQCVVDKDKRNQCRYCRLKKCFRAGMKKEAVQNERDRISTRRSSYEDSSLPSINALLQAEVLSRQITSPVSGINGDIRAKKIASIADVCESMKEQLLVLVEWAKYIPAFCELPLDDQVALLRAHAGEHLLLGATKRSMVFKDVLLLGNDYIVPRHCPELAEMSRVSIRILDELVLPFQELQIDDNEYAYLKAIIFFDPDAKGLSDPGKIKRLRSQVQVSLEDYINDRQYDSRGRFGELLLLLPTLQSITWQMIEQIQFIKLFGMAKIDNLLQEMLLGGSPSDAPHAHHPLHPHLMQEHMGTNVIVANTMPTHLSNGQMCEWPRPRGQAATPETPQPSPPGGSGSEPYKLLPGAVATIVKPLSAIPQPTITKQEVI
The depositor's hits bear a star; ? = inconclusive; . = no result given. An excerpt, so the mix of outcomes need not match the whole.

(1) CC1(C)CC(N2CCOCC2)=CC(=S)N1
(2) COCCNC(=O)C1(C)CCCN(Cc2ccc(OC)cc2)C1 (configuration not stated)
(3) Cc1cccnc1C(NC(=O)C1CCN(Cc2ccc(Oc3ccccc3)cc2)CC1)c1ccccc1 (configuration not stated)
(4) CCc1nc2c(OCc3cccc(Cl)c3)cccn2c1N(C)C(=O)C(C)C
(5) CC1(Cc2cc(Cl)ccc2C(F)(F)F)C(=O)Nc2ccc(OC(F)(F)F)cc21 (configuration not stated)
(6) CCC(c1nnnn1-c1c(C)cccc1C)N1CCN(c2ccc(C(F)(F)F)cc2[N+](=O)[O-])CC1 (configuration not stated)
(7) COc1ccc(N(/N=C2\Sc3ccccc3C2=O)C(C)=O)cc1
(8) N#CN1C2CCC1CC(O)(c1ccccc1)C2 (configuration not stated)
(9) Cc1ccc(NCC(=O)N/N=C\c2cccc(O)c2)cc1
(10) CC1(C)OC2C(CO)OC(n3cnc4c(=S)nc(N)[nH]c43)C2O1 (configuration not stated)
screen / no.	1	2	3	4	5	6	7	8	9	10
RanGTP-Imp inh	.	.	.	.	.	.	.	.	.	.
HNF4A DNA FP	0.3	-0.2	2.8	2.8	-2.9	3.4	-1.9	2.5	6.3	1.2

(11) CCCOc1ccc(F)cc1-c1cc(C(=O)NCc2ccc(C(F)(F)F)cc2)[nH]n1
(12) O=C(NN=Cc1ccc(O)c(O)c1)c1ccccc1
(13) COc1cc(CCN=Cc2ccccc2O)c([N+](=O)[O-])cc1OC
(14) O=C(COC(=O)C1=Cc2ccccc2OC1)NCc1ccc(F)cc1
(15) Cc1nnc(-c2ccc(N3CCOCC3)c([N+](=O)[O-])c2)o1
(16) CCCC(=O)N1CCC1(C)C(=O)NCc1ccc(C(C)C)cc1 (configuration not stated)
(17) NC(=S)N/N=C\c1c2ccccc2cc2ccccc12
(18) COCCNC(=O)C1(C)CCCN(Cc2csc(-c3ccc(Cl)cc3)n2)C1 (configuration not stated)
(19) Fc1cccc(Cc2c(-c3ccco3)nc3ccc(Cl)cn23)c1
(20) COCCNc1nc(-c2ccccc2CO)c2sc(-c3ccccc3)cc2n1
screen / no.	11	12	13	14	15	16	17	18	19	20
RanGTP-Imp inh	.	.	.	.	.	.	.	.	.	.
HNF4A DNA FP	-0.4	1.7	2.5	-46	-1.8	-1.1	-3.3	0.4	11	-0.4

(21) C/C(=N\NC(=O)c1ccccc1)c1cc2cc([N+](=O)[O-])ccc2oc1=O
(22) CCc1ccc(C(O)c2ncc(-c3cccc(OC)c3)[nH]2)cc1 (configuration not stated)
(23) Clc1ccc(N2O[C@H]3C=C[C@@H]2C3)nc1
(24) CCC(C)Nc1ccc(NC(C)CC)cc1 (configuration not stated)
(25) C=CCNc1oc(-c2ccc(-c3ccccc3)cc2)nc1C#N
(26) COc1ccc(C(O)c2ncc(-c3cccc(OCc4ccccc4)c3)[nH]2)cc1F (configuration not stated)
(27) COc1cc(NC(=O)c2ccc(S(=O)(=O)N(C)c3ccccc3)cc2)cc(OC)c1
(28) C[C@@]12C(=O)Nc3ccc(Br)cc3C(=O)N1[C@H]1c3ccccc3OC[C@@H]1[C@@H]2c1ccccc1
(29) C#CCOCCOCCOCCNc1nc(N2CCN(C(=O)CCCCCCCCCCNC(=O)Cn3cc(CCCCCN)nn3)CC2)nc(N2CCN(C(=O)CCCCCCCCCCNC(=O)Cn3cc(C[C@@H](C)O)nn3)CC2)n1
(30) COC(=O)c1c[n+]([O-])ccc1OC
screen / no.	21	22	23	24	25	26	27	28	29	30
RanGTP-Imp inh	.	.	.	.	.	.	.	.	.	.
HNF4A DNA FP	3.6	-2.7	-62	4.3	-1.6	1.7	3.6	1.8	6.6	1.6

(31) C/C(=N\Nc1ncc(Cl)cc1Cl)c1ccccn1
(32) S=C(N/N=C/c1ccccc1)N1CCOCC1
(33) Cc1ccc(NC(=O)CN(C)C(=O)Cn2cc(C(F)(F)F)ccc2=O)cc1
(34) CC1C/C(=N\NC(=O)CCc2ccc(S(=O)(=O)N3CCOCC3)cc2)CC(C)(C)C1 (configuration not stated)
(35) C/C(=N\NC(=O)C(C)n1nc(C)c([N+](=O)[O-])c1C)c1ccccc1O (configuration not stated)
(36) COc1cccc(/C=N/NC(=O)c2cc3c(OC)cccc3[nH]2)c1OC
(37) COC(C/C=C/C(=O)[C@H](C)OCc1ccccc1)OC
(38) OCC(CO)(CO)NCc1ccc(-c2ccccc2)cc1
(39) COc1ccc(/C=N/NC(=O)c2nc(-c3ccccc3)cc(-c3ccccc3)n2)cc1O
(40) Cc1cccc(NC(=S)NNC(=O)c2ccccc2Br)c1
screen / no.	31	32	33	34	35	36	37	38	39	40
RanGTP-Imp inh	-1.3	3.7	-2.6	1.1	-3.3	?	-0.6	-2.7	4.5	-0.5
HNF4A DNA FP	-5.1	-0.2	0.0	2.3	1.5	1.9	2.5	0.1	2.3	-3.1

(41) CC(=O)c1ccc(NC(=O)CO/N=C(\C)c2cccs2)cc1
(42) N#C/C(=C\c1c(N2CCC(C(N)=O)CC2)nc2ccccn2c1=O)C(=O)NCc1ccco1
(43) COc1ccc(/C=N/NC(=O)c2ccc(Cl)cc2)cc1COC(C)=O
(44) COCCCNC(=O)/C(C#N)=C/c1cccc(NC(=O)c2ccccc2Cl)c1
(45) COc1ccc(C(=O)Oc2ccc(/C=N/NC(=O)Cc3ccc([N+](=O)[O-])cc3)cc2)cc1
(46) O=C(OC(C(=O)Nc1ccc(Cl)cc1C(F)(F)F)c1ccccc1)C1=COCCO1 (configuration not stated)
(47) Cn1c(N/N=C2\CCCc3ccccc32)nc2c1c(=O)n(Cc1ccc(F)cc1)c(=O)n2C
(48) COC(=O)c1ccc(/C=N\NC(=O)c2c(C)nc3ccc(Cl)cn23)cc1
(49) C/C(=N/NC(=O)c1ccoc1C)c1cccc(NC(=O)C(F)(F)F)c1
(50) C/C(CC(=O)Nc1ccc(Cl)c(C(F)(F)F)c1)=N\NC(=O)c1cccc(O)c1
screen / no.	41	42	43	44	45	46	47	48	49	50
RanGTP-Imp inh	0.1	8.0	-0.6	1.4	-0.4	6.4	5.3	8.4	0.2	0.0
HNF4A DNA FP	0.0	0.6	0.1	4.0	4.7	1.0	-3.2	0.0	0.5	-0.8

(51) CC(=O)/C(=N\Nc1ccccc1Cl)Sc1cccc2cccnc12
(52) C/C(=N\Nc1nc2ccccc2[nH]1)c1cc2ccccc2o1
(53) Cc1cc(C)nc(SCc2ccc(C(=O)N/N=C/c3cccnc3)cc2)n1
(54) CN(C)c1ccc(/C=N/N(Cc2ccccc2)c2ccccc2)cc1
(55) O=C(O)c1cccc(Cn2c(Cl)c(/C=N/Nc3ccccc3)sc2=O)c1
(56) Cc1oc(/C=N/NS(=O)(=O)c2ccccc2)cc1Br
(57) Cc1ccc(Cn2cc(S(=O)(=O)c3ccc(Cl)cc3)c(=O)c3cc(F)ccc32)cc1
(58) O=[N+]([O-])c1ccc(N/N=C/c2cn(Cc3ccc(F)cc3)c3ccccc23)nc1
(59) O=[N+]([O-])c1ccc(COc2ccccc2/C=N/O)cc1
(60) Cc1ccc(NC(=S)NNC(=O)c2ccc(N3CCOCC3)c([N+](=O)[O-])c2)cc1Cl
screen / no.	51	52	53	54	55	56	57	58	59	60
RanGTP-Imp inh	1.0	-2.3	-1.9	1.7	3.1	-3.6	-4.1	-4.1	-3.7	-1.9
HNF4A DNA FP	-0.6	0.4	-0.2	-3.4	12	5.1	-2.1	16	-1.7	-2.2

Given as a markdown table: part of the list above.
| cpd | Molecule | RanGTP-Imp inh | HNF4A DNA FP |
| --- | --- | --- | --- |
| 43 | COc1ccc(/C=N/NC(=O)c2ccc(Cl)cc2)cc1COC(C)=O | -0.6 | 0.1 |
| 44 | COCCCNC(=O)/C(C#N)=C/c1cccc(NC(=O)c2ccccc2Cl)c1 | 1.4 | 4.0 |
| 45 | COc1ccc(C(=O)Oc2ccc(/C=N/NC(=O)Cc3ccc([N+](=O)[O-])cc3)cc2)cc1 | -0.4 | 4.7 |
| 46 | O=C(OC(C(=O)Nc1ccc(Cl)cc1C(F)(F)F)c1ccccc1)C1=COCCO1 (configuration not stated) | 6.4 | 1.0 |
| 47 | Cn1c(N/N=C2\CCCc3ccccc32)nc2c1c(=O)n(Cc1ccc(F)cc1)c(=O)n2C | 5.3 | -3.2 |
| 48 | COC(=O)c1ccc(/C=N\NC(=O)c2c(C)nc3ccc(Cl)cn23)cc1 | 8.4 | 0.0 |
| 49 | C/C(=N/NC(=O)c1ccoc1C)c1cccc(NC(=O)C(F)(F)F)c1 | 0.2 | 0.5 |
| 50 | C/C(CC(=O)Nc1ccc(Cl)c(C(F)(F)F)c1)=N\NC(=O)c1cccc(O)c1 | 0.0 | -0.8 |
| 51 | CC(=O)/C(=N\Nc1ccccc1Cl)Sc1cccc2cccnc12 | 1.0 | -0.6 |
| 52 | C/C(=N\Nc1nc2ccccc2[nH]1)c1cc2ccccc2o1 | -2.3 | 0.4 |
| 53 | Cc1cc(C)nc(SCc2ccc(C(=O)N/N=C/c3cccnc3)cc2)n1 | -1.9 | -0.2 |
| 54 | CN(C)c1ccc(/C=N/N(Cc2ccccc2)c2ccccc2)cc1 | 1.7 | -3.4 |
| 55 | O=C(O)c1cccc(Cn2c(Cl)c(/C=N/Nc3ccccc3)sc2=O)c1 | 3.1 | 12 |
| 56 | Cc1oc(/C=N/NS(=O)(=O)c2ccccc2)cc1Br | -3.6 | 5.1 |
| 57 | Cc1ccc(Cn2cc(S(=O)(=O)c3ccc(Cl)cc3)c(=O)c3cc(F)ccc32)cc1 | -4.1 | -2.1 |

(cont.)
(61) CCOc1cc(/C=N/NC(=O)CN2CCOCC2)ccc1OCc1ccccc1
(62) Nc1nonc1-n1nnc(C(=O)N/N=C/c2ccoc2)c1CSc1ccccc1
(63) CC(=O)Nc1sc(N/N=C\c2ccco2)nc1-c1cccs1
(64) O=C(NC(Cc1ccccc1)C(=O)Oc1ccc2c(C(F)(F)F)cc(=O)oc2c1)OCc1ccccc1 (configuration not stated)
(65) COc1ccc(/C=N/NC(=O)CNc2c(Br)cc(C)cc2Br)c(C(=O)O)c1OC
(66) CC12CCCCC1NS(=O)(=O)OC2 (configuration not stated)
(67) O=C(CCc1ccccc1)NNC(=O)c1ccc(NC(=O)c2ccccc2)cc1
screen / no.	61	62	63	64	65	66	67
RanGTP-Imp inh	-1.5	?	-1.9	37*	1.8	?	?
HNF4A DNA FP	5.9	-8.6	3.2	-19	-1.9	-1.1	-0.2

Rewritten field by field: entries from further up
[35] C/C(=N\NC(=O)C(C)n1nc(C)c([N+](=O)[O-])c1C)c1ccccc1O (configuration not stated)
  RanGTP-Imp inh = -3.3
  HNF4A DNA FP = 1.5
[36] COc1cccc(/C=N/NC(=O)c2cc3c(OC)cccc3[nH]2)c1OC
  RanGTP-Imp inh = ?
  HNF4A DNA FP = 1.9
